VDR inh: blocks the human vitamin D receptor; actives 0.93% (n = 400,000); P11473; Potency, µM, for the others: max response, negative = inhibition, actives largely listed as inhibitors; VDR-SRC2-3 peptide fluorescence polarization, 2 h; active means well fitted inhibition curve with a large enough effect; inconclusive means small, poorly fitted or top-dose-only effect, or another doubt; inactive means no such curve, though single readings can be large or run the other way; further: series mostly up to about 120 µM
Target sequence (P11473 whole entry, looked up): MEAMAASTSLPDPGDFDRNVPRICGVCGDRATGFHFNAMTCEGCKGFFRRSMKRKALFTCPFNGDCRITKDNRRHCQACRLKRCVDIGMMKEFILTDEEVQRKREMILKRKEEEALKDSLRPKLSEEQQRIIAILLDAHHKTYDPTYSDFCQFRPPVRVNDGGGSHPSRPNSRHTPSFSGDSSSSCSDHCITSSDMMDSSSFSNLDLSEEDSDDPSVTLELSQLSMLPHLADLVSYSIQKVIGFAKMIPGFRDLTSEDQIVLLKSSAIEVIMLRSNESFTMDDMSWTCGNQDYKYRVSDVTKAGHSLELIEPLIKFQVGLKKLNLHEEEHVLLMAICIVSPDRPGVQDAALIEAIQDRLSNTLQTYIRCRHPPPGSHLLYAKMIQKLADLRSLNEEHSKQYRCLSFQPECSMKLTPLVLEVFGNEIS
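Compounds are added to VDR with labelled SRC2-3 coactivator peptide and held 2 h at room temperature. Inhibition of the VDR–peptide interaction is then read as a change in fluorescence polarization.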
Starred values were filed as active, the others as inactive; ? = inconclusive; & = joins results of further samples. On the % scale 0 is the no-effect control and ±100 the full control effect; potency means the concentration at half of the fitted maximal effect. Some of the compounds tested (hit frequency here may not be typical).

#	structure	VDR inh
1	N/C(=N\OC(=O)Nc1ccccc1)c1ncc([N+](=O)[O-])s1	11%
2	C=CCNC1=C(Cl)C(=O)N(c2ccccc2Cl)C1=O	14%
3	CCC1(C)CC(CC(=O)O)(c2ccccc2OC)CCO1 (stereo not drawn)	0%
4	C=CCn1cccc(C(=O)Nc2cc(OC)c(OC)c(OC)c2)c1=O	-14%
5	Cc1ccc(NC(=O)c2ccc(CNS(=O)(=O)c3ccc4c(c3)C(C)(C)C(=O)N4C)cc2)cc1	4%
6	Cc1ncc(CN2CCCC(C(=O)Nc3ccc(-c4cccc(F)c4)cc3)C2)s1 (stereo not drawn)	-18%
7	CCc1ccc2oc(C(=O)Nc3cccc(C(F)(F)F)c3)cc(=O)c2c1	15%
8	CCOc1ccc(-c2nc(CSc3nncs3)cs2)cc1OC	1%
9	Cc1cc(C)cc(OCc2nnc(SCC(=O)c3ccc(Br)cc3)o2)c1	24%
10	O=c1[nH]c(-c2ccccc2)ncc1Oc1ccccc1	9%
11	CC1CCN(C(=O)CCc2nnc3ccc(N4CCC5(CC4)OCCO5)nn23)CC1	-2%
12	CC(NC(=S)Nc1ccccc1Cl)C(c1ccccc1)N1CCOCC1 (stereo not drawn)	4%
13	CCc1ccccc1OCC(=O)Nc1ccc(S(N)(=O)=O)cc1	7%
14	O=C(Nc1ccncc1)Nc1ccc(Br)cc1Cl	16%
15	COc1ccc(NC(=S)N2CCCCC2c2cccnc2)cc1 (stereo not drawn)	9%
16	CC(C)C(=O)Nc1ccc(N2CCCC2)cc1	12%
17	CCC1(c2ccccc2)C(=O)N(C(=O)OC(C)(C)C)N1C(=O)OC(C)(C)C (stereo not drawn)	6%
18	CCCCCSc1nnc(-c2ccccc2NC(C)=O)c(=O)[nH]1	-11%
19	Cc1ccc(NC(=O)Cn2c(-c3cncs3)nc3ccccc32)c(Br)c1	-2%
20	CCn1c(SCc2ccccc2)nnc1-c1cccnc1	0%
21	CCc1cccc(C)c1NC(=O)c1cc(S(=O)(=O)N2CCCCCC2)cn1C	13%
22	COc1ccc(C(=O)COC(=O)/C=C/c2ccccc2[N+](=O)[O-])cc1	-3%
23	COc1ccc(CNc2nc3ccccc3n2C)c(OC)c1	-11%
24	CS(=O)(=O)Nc1ccc(C(=O)NCc2ccccn2)cc1	0%
25	O=[N+]([O-])c1cc([N+](=O)[O-])c2n[nH]c(-c3ccccc3)c2c1	16%

#	structure	VDR inh
26	C=CCN(C)NC(=O)Nc1ccccc1	7%
27	Cc1cccc(-c2nnc(SCC(=O)Nc3cccc(C(=O)N4CCOCC4)c3)n2C)c1	-9%
28	Cc1ccc(N2C(=O)c3ccccc3C2(O)c2ncc[nH]2)cc1 (stereo not drawn)	-5%
29	CCOc1ccc(CCNC(=O)c2cccc(S(=O)(=O)N3CCOCC3)c2)cc1OCC	-12%
30	O=C(CSC1=NCCS1)NC1CCCC1	3%
31	COc1cccc(NC(=S)N(Cc2ccc(C(=O)O)cc2)Cc2ccc(OC)c(OC)c2)c1	16%
32	COc1ccc(C(=O)N2CCCC(C(N)=O)C2)cc1S(=O)(=O)N1CCOCC1 (stereo not drawn)	1%
33	COc1cc2[nH]c(=S)nc(NCc3ccccn3)c2cc1OC	-11%
34	CCOC(=O)CCSc1n[nH]c(=S)s1	17%
35	CCc1ccc(NC(=O)CSc2cn(CC(=O)N3CCOCC3)c3ccccc23)cc1	8%
36	CC1CCCCC1NC(=O)Cn1[nH]c(=O)c2ccccc2c1=O (stereo not drawn)	-4%
37	CCn1c(SCC(=O)NC2CCCC2)nnc1-c1ccco1	-5%
38	Cc1ccc2nc(NC(=O)CN3C(=O)C4CC=CCC4C3=O)sc2c1 (stereo not drawn)	-9%
39	COCCOC(=O)C1=C(C)NC(=O)NC1c1cccs1 (stereo not drawn)	12%
40	Cc1cc(C(F)F)n2nc(C(=O)Nc3cccc(Cl)c3C)nc2n1	-10%
41	C/C(CC(=O)Nc1ccccc1-c1ccccc1)=N\NC(=O)COc1ccc(C)cc1Br	4%
42	COc1cc(NC(=O)c2ccc(NC3=NC4CS(=O)(=O)CC4S3)cc2)cc(OC)c1 (stereo not drawn)	-4%
43	O=C(CCn1ccc([N+](=O)[O-])n1)NC1CCCCCC1	-21%
44	O=C(COC(=O)CCC(=O)c1ccc(F)cc1)Nc1ccccc1	-18%
45	Cc1cc(C)nc(N/C(=N\S(=O)(=O)Cc2ccccc2)Nc2cccc(Cl)c2C)n1	11%
46	COC(=O)CC1C2(C)CC34OC5(C)O[C@@]6(C7/C(=C(/O)C(C)C)C(=O)OC(c8ccoc8)[C@]7(C)C(OC(C)=O)C(OC(C)=O)[C@]6(O5)[C@@]13C)C(OC(C)=O)[C@]4(O)C2OC(=O)C(C)C (stereo partly drawn)	4%
47	O=C(N/N=C/c1ccc(N2CCOCC2)cc1)c1ccccc1OCCOc1ccccc1	?
48	CC(=O)c1cccc(NC(=O)Nc2ccc(C(=O)N3CCCC3)cc2)c1	-4%
49	Cc1ccc(C(=O)CSc2nnc(CNc3ccc(C)cc3C)n2Cc2ccco2)cc1	-2%
50	COC(=O)C(Nc1nccs1)(OC)C(F)(F)F (stereo not drawn)	-13%

#	structure	VDR inh
51	N#Cc1ccc(Cl)cc1NC(=O)COC(=O)c1cccc(S(=O)(=O)N2CCOCC2)c1	6%
52	COCCNC(=O)C(=O)N/N=C/c1ccc(C(=O)OC)cc1	-5%
53	O=C(CSc1nc2ccccc2c(=O)n1-c1ccc(SC(F)F)cc1)Nc1ccc(N2CCOCC2)cc1	-7%
54	O=C(CSc1ncccc1C(=O)O)NC12CC3CC(CC(C3)C1)C2	20%
55	NC(=O)C1(N2CCCCC2)CCN(C(=O)Nc2ccc(C(F)(F)F)cc2)CC1	7%
56	COc1ccc(C2N(c3cc(Cl)ccc3OC)C(=O)C3CCCN32)cc1OC (stereo not drawn)	-5%
57	CC(=O)c1c(C)[nH]c(C(=O)NCCCN2CCCC2)c1C	-8%
58	O=C(NNC(=O)C1CCCN(c2ncccn2)C1)c1ccc(F)cc1 (stereo not drawn)	12%
59	Cc1ccc(-c2ocnc2C(=O)N2CCOCC2)cc1	-2%
60	CCc1ccccc1NC(=O)Nc1cc(C(=O)NCc2ccc(C(C)C)cc2)ccc1N1CCCC1	1%
61	Cc1ccc(NC(=O)CNC(=O)c2ccco2)nc1	6%
62	COc1ccc(NC(=O)CSc2nnc3ccc(-c4ccccn4)nn23)cc1OC	-9%
63	Cn1ccnc1C(O)c1cccc(OCc2ccccc2)c1 (stereo not drawn)	-5%
64	O=C(CCC(=O)OCC(F)(F)C(F)F)Nc1ccc(Cl)cc1	0%
65	N#Cc1cccc(NC(=O)CSc2cccc[n+]2[O-])c1	6%
66	Cc1cccc(C2(c3cccc(C)c3)CC2C(=O)NCC2CCCO2)c1 (stereo not drawn)	?
67	CC(=O)c1c(C)nc(-c2ccc(Cl)cc2)nc1N	-12%
68	O=C(CCN1C(=O)/C(=C/c2cccs2)SC1=S)Nc1ccccn1	-8%
69	O=C(CC1Nc2ccccc2NC1=O)Nc1cc(Cl)cc(Cl)c1 (stereo not drawn)	4%
70	Cc1ccc(-c2nnn(CC(=O)O)n2)cc1	-6%
71	O=c1oc(-c2ccccc2)nc2sc3c(c12)CCC3	-16%
72	Cc1ccc(NC(=O)Nc2cnccn2)cc1C	6%
73	Cn1c(=O)c2sccc2n2c(CCCC(=O)Nc3ccc(F)c(F)c3)nnc12	1%
74	c1ccc(C(NCc2cccnc2)(c2ccccc2)c2ccccc2)cc1	?
75	CCn1nnc2cc(C(=O)Nc3cccc(Cl)c3C)ccc21	9%

Random excerpt: 3 entries already listed, in no set order.
#	structure	VDR inh
69	O=C(CC1Nc2ccccc2NC1=O)Nc1cc(Cl)cc(Cl)c1 (stereo not drawn)	4%
58	O=C(NNC(=O)C1CCCN(c2ncccn2)C1)c1ccc(F)cc1 (stereo not drawn)	12%
57	CC(=O)c1c(C)[nH]c(C(=O)NCCCN2CCCC2)c1C	-8%

More results follow.
#	structure	VDR inh
76	O=C(Nc1ccc(S(=O)(=O)Nc2nccs2)cc1)c1ccc(=O)[nH]c1	-1%
77	CCOC(=O)c1ccc(NC(=S)Nc2cccc(N)n2)cc1	3%
78	CCOC(=O)c1cc(-c2ccccc2C)n(CC2CC(c3cccc([N+](=O)[O-])c3)=NO2)n1 (stereo not drawn)	0%
79	CC(Nc1cccc([N+](=O)[O-])c1)C(=O)Nc1ccc(S(=O)(=O)N2CCCC2)cc1 (stereo not drawn)	-2%
80	CCc1ccccc1NC(=O)C1CCN(c2cnccn2)CC1	16%&5%
81	O=C(O)c1cc2ccccc2[nH]1	-19%&3%
82	COc1ccc(N2CCN(CCCNC(=S)Nc3c(C)cccc3C)CC2)cc1	-8%
83	CCc1nnc(NC(=O)CSc2nnc(C3CCCCC3)n2-c2cccc(Cl)c2)s1	16%
84	COc1ccc(OCC(=O)NCc2ccc(Cl)cc2)cc1	3%
85	CC(C)CCn1c(CN2CCOCC2)nc2c1c(=O)n(C)c(=O)n2C	-11%
86	CCOC(=O)c1sc(C)c2c1NC1(CCCCCC1)NC2=O	-18%
87	O=C(NNC(=O)c1sccc1-n1cccc1)c1ccc(Cl)cc1	-1%
88	COc1ccc(CNC(=O)c2cc(S(=O)(=O)N3CCCCC3)ccc2N2CCOCC2)cc1OC	-25%
89	CCOC(=O)CCSc1nc(-c2ccccc2)cc(C(F)(F)F)n1	-6%
90	COc1ccc2oc(C(=O)OCC(=O)Nc3ccccc3)c(C)c2c1	-13%
91	CCCN(CC1CC1)C(=S)NC(=O)c1cc(Br)ccc1Cl	-12%
92	CCC(=O)NCCNC(=O)c1c(SC)nsc1SC	-3%
93	COc1ccc(NC(=O)CCCN2C(=O)C3CC=CCC3C2=O)cc1 (stereo not drawn)	-26%
94	O=C(OCC(=O)N1CCCc2ccccc21)c1ccc(Cl)nc1	-16%
95	Cc1ccc(NC(=O)CCC(=O)NNC(=O)c2ccccc2)c(C)c1	9%
96	O=C(/C=C/c1ccccc1)NCCSCc1ccc(Cl)cc1	0%
97	COc1ccc(Cl)cc1C(=O)NCCS(=O)(=O)N1CCN(c2ccccc2F)CC1	-5%
98	O=C(/C=C/c1ccccc1)NC(NC(=S)Nc1ccc(Cl)cc1Cl)C(Cl)(Cl)Cl (stereo not drawn)	?
99	O=C(Nc1ccc(C(=O)O)cc1)/C(=C/c1ccc([N+](=O)[O-])cc1)NC(=O)c1ccccc1	-14%
100	O=C(NC1(C(F)(F)F)N=C(c2ccccc2)N(Cc2ccccc2)C1=O)c1ccc(F)cc1 (stereo not drawn)	-6%

#	structure	VDR inh
101	c1ccc(-c2noc(CSc3nnnn3-c3ccccc3)n2)cc1	17%
102	CC(=O)/C(=N\Nc1ccc(Cl)cc1)Sc1nnc(-c2ccccc2)n1-c1ccccc1	-7%
103	NS(=O)(=O)c1ccc(N/N=C/c2ccccn2)c([N+](=O)[O-])c1	-5%
104	CCOC(=O)C1=C(CC)OC(N)=C(C#N)C1c1cc(OC)ccc1OC (stereo not drawn)	5%
105	CCOc1ccc(NC(=O)CN(C)C(=O)c2ccccc2OCc2cccc(C)c2)cc1OCC	-13%
106	CCC(=O)Nc1ccc(N2CCC(C)CC2)cc1	-6%
107	COc1cccc(/C=N/NC(=O)c2ccc(OCc3cccc(Br)c3)cc2)c1	12%
108	Cc1ccc2nc(/N=C(\N)NC(=O)NC3CCCCC3)nc(C)c2c1	15%
109	O=C(CSc1nnnn1Cc1ccccc1)Nc1ccc2c(c1)OCCO2	-8%
110	Cc1cccc(NC(=O)c2ccc(OCC3CCCO3)cc2)c1C (stereo not drawn)	-7%
111	CN(Cc1ccccc1NS(=O)(=O)c1ccc(Cl)cc1)C1CCCCC1	1%
112	O=C(NC1CCCCC1)C(c1ccc(Cl)cc1)N1CCC2(CC1)OCCO2 (stereo not drawn)	4%
113	O=S(=O)(Nc1ccc(OC(F)F)cc1)c1ccc(-c2ccon2)s1	21%
114	COc1ccc(S(=O)(=O)NC2CC(=O)N(c3ccc(C)c(C)c3)C2)cc1 (stereo not drawn)	0%
115	COC(=O)c1ccc(Cn2nnc3c(=O)[nH]c(C4CCCN(S(=O)(=O)c5ccccc5)C4)nc32)cc1 (stereo not drawn)	3%&21%
116	O=C(O)c1ccccc1C1c2ccccc2Oc2ccccc21	-8%
117	COc1ccc(NC(=O)CN(c2cccc(F)c2)S(C)(=O)=O)cc1OC	-12%
118	CN(CC(=O)Nc1ccc(S(=O)(=O)N2CCCC2)cc1)Cc1c(F)cccc1Cl	-10%
119	Cc1cccc(N2CCC(NCc3c(C(=O)N4CCCCC4)nc4c(C)cccn34)CC2)c1	7%
120	Cn1nnnc1N=N/C(=N/Nc1ccccc1)c1ccccc1	7%
121	O=C(O)c1ccc(SCc2ccccc2)nc1	-18%
122	Cc1ccc(N2CC(C(=O)Nc3nnc(SCCC4OCCO4)s3)CC2=O)cc1 (stereo not drawn)	-21%
123	Cc1ccc2c(c1)[C@H]1[C@H](CO2)[C@H](c2ccccc2)[C@]2(C)C(=O)N(Cc3ccc(Cl)cc3)CC(=O)N12	-1%
124	CCC(Oc1cc(Cl)ccc1Cl)C(=O)N1CCCN(C)CC1 (stereo not drawn)	-8%
125	COc1ccc(C(=O)Nc2ccc3ccccc3n2)cc1OC	-9%
126	O=C(O)c1cc(S(=O)(=O)Nc2ccccc2Cc2ccccc2)ccc1Cl	-5%

6 structures out of the list, ordered by length of the SMILES, ascending:
#	structure	VDR inh
125	COc1ccc(C(=O)Nc2ccc3ccccc3n2)cc1OC	-9%
101	c1ccc(-c2noc(CSc3nnnn3-c3ccccc3)n2)cc1	17%
89	CCOC(=O)CCSc1nc(-c2ccccc2)cc(C(F)(F)F)n1	-6%
85	CC(C)CCn1c(CN2CCOCC2)nc2c1c(=O)n(C)c(=O)n2C	-11%
114	COc1ccc(S(=O)(=O)NC2CC(=O)N(c3ccc(C)c(C)c3)C2)cc1 (stereo not drawn)	0%
51	N#Cc1ccc(Cl)cc1NC(=O)COC(=O)c1cccc(S(=O)(=O)N2CCOCC2)c1	6%
